# BLM helicase inh: inhibitors of human Bloom syndrome helicase BLM; recombinant BLM DNA unwinding, fluorescence dequenching; Potency, µM (doses to about 56.1 µM), inactives show at the highest dose activity change, negative = inhibition, hits mostly inhibitors; 350,000 tested, 0.2% active; P54132;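 further: plate controls were vehicle for no effect and no enzyme for full effect; nearly all actives have a fitted effect of over 35% in size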
# ERG Ets-DNA blk: inhibitors of human ERG Ets domain-DNA interaction; fluorescence polarization, His-ERG Ets domain / labelled DNA; Potency, µM (series often up to 76.9 µM), without a hit: top-dose FP activity, negative = inhibition, actives largely listed as inhibitors; 370,000 tested, 0.028% active; AID 624246; active means well fitted inhibition curve with a large enough effect in the polarisation, with a control signal flat; inconclusive means small, poorly fitted or top-dose-only effect, or effect the other way, or a change in a side signal; inactive means no such curve, though single readings can be large or run the other way; the % refers to the polarisation;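 further: polarization taken with two DNA probes labelled with fluorescein and Texas red; % of control where 0% means no effect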
# Target sequence (P11308 whole entry, looked up, the tested form may be a part): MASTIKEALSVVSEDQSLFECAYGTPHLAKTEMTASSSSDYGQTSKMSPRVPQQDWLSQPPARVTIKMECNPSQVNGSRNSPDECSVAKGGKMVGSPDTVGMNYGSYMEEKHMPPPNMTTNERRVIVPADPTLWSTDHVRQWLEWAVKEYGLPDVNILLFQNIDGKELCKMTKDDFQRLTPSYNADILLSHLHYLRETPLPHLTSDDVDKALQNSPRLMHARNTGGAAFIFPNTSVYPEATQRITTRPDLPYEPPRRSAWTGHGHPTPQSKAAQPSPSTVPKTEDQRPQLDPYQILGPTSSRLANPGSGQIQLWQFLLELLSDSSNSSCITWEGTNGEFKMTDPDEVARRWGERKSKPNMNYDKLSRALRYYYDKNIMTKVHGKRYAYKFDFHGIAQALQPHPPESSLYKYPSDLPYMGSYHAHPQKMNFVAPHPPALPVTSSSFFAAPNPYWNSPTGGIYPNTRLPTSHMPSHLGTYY
#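 His-tagged ERG Ets domain (1 uM in the protein solution; 300mM KCl, 50mM Tris-HCl, 1mM EDTA, 1mM DTT, pH 7.5) received compound, then a probe mix of 5 nM fluorescein-DNA and 100nM Texas-615-DNA. Fluorescence polarization was read for both dyes.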
# APE1 inh: blocks human APE1 abasic DNA cleavage. recombinant APE1, TAMRA/BHQ-2 abasic DNA cleavage fluorescence. Potency, µM (titrated, usually from 65.8 µM), inactives show at the highest dose activity change, negative = inhibition, usual class: inhibitors. 350,000 tested, 0.35% active. AID 2517;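 further: plate controls were vehicle for no effect and reference inhibitor for full effect; nearly all actives have a fitted effect of over 55% in size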
#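 APE1 at 0.75 nM final was preincubated with compound 15 min at room temperature, then 50 nM double-stranded THF abasic-site substrate (5'-TAMRA/3'-BHQ-2) was added. Fluorescence (ex 525/em 598 nm) was read kinetically; third-minus-first read gave activity.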
# POLB inh: DNA polymerase beta (human) inhibition; P06746; Pol beta primer extension/strand displacement, fluorescence kinetic; Potency, µM (highest dose often 114 µM), without a hit: top-dose activity change, negative = inhibition, hits mostly inhibitors; 340,000 tested, 1.3% active; AID 485314; further: on the % scale 0 is the no-effect control and ±100 the full control effect
#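 Pol beta (10 nM) was preincubated with compound for 15 min at room temperature. The reaction was then started with 50 nM substrate and read immediately and after a further 10 min at room temperature.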
# Pol kappa inh: DNA polymerase kappa (human) inhibition; Q9UBT6; purified Pol kappa, fluorescent DNA synthesis assay, 10 min; 400,000 tested, 0.53% active; Potency, µM (highest dose often 107 µM), for inactives: at the highest dose activity, negative = inhibition, most hits filed as inhibitors; further: on the % scale 0 is the no-effect control and ±100 the full control effect
#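 Fluorescent qHTS in 1536-well format: enzyme (10 nM) and compound sat 15 min at room temperature before 50 nM substrate (final) was added. Signal taken at 0 and 10 min; no-enzyme buffer wells were negative controls.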
# An asterisk follows results filed as active; ? = inconclusive; . = not tested or not shown; & = joins results of further samples; [ ] = another dose, or the depositor's remark. Unless noted, the call rests on the fitted dose curve; in most records, active means well fitted curve in the direction sought with a large enough effect; inconclusive means small, poorly fitted or top-dose-only effect, or another doubt; inactive means no such curve, though single readings can be large; an effect the other way counts as inactive or inconclusive. Potency means the concentration at half of the fitted maximal effect. Only part of the results is shown; rates above refer to the full screens.
# Order of results: BLM helicase inh | ERG Ets-DNA blk | APE1 inh | POLB inh | Pol kappa inh
1) C[C@@]12C=CC(=O)C=C1CC[C@@H]1[C@@H]2[C@H](O)C[C@]2(C)[C@@H]1CC[C@]2(O)C(=O)CO
    -8.2%[21.4 µM] | . | -1.2%[21 µM] | . | -4.8%[12 µM]
2) Cc1cnc(C(=O)NCCc2ccc(S(=O)(=O)NC(=O)NC3CCCCC3)cc2)cn1
    1.2% | 2.1% | 5.1% | 2.1% | 8.5%[60.1 µM]
3) O=C(O)c1ccccc1O
    -3.3%&-5.3%&0.5%&-5.6% | 5.7% | -6.4%&-2.3%&-1.2% | 14.8% | -0.5%
4) CN(C)CCN(Cc1cccs1)c1ccccn1
    -10.0% | 2.0% | -7.0% | -5.6%[57.1 µM] | 10.6%[60.1 µM]
5) O=c1[nH]cnc2ccccc12
    3.3%&3.6%&-0.8% | 10.5% | 1.4%&-4.4%&-0.9% | 6.5% | -8.1%[60.1 µM]
6) NC(N)=Nc1nc(CSCC/C(N)=N/S(N)(=O)=O)cs1
    -4.1% | -7.3% | -0.4% | -23.3% | -9.6%[60.1 µM]
7) CC(C)[N+]1(C)C2CCC1CC(OC(=O)C(CO)c1ccccc1)C2 (stereo not given)
    5.4% | . | 22.6%&-0.2% | . | 6.2%[19.4 µM]
8) C[C@]12C=CC(=O)C=C1CC[C@@H]1[C@@H]2[C@@H](O)C[C@@]2(C)[C@H]1CC[C@]2(O)C(=O)CO
    -3.0% | 0.2% | -1.8%&1.6% | 43.2% | 10.6%
9) C[C@]12C[C@H](O)[C@H]3[C@@H](CCC4=CC(=O)CC[C@@]43C)[C@@H]1CC[C@@H]2C(=O)CO
    2.0%&0.2% | 29.0% | 6.3%&0.1% | 19.8% | -10.6%[60.1 µM]
10) CC(C)[N+]1(C)[C@@H]2CC[C@H]1CC(OC(=O)C(CO)c1ccccc1)C2 (stereo not given in full)
    1.4% | 12.4%&-9.7%&-14.4% | -5.7%&-2.0%&15.2%&-3.9% | -23.3% | 8.9%&0.0%&-2.1%

# Laid out differently: results already given
No.	Compound	BLM helicase inh	ERG Ets-DNA blk	APE1 inh	POLB inh	Pol kappa inh
1	C[C@@]12C=CC(=O)C=C1CC[C@@H]1[C@@H]2[C@H](O)C[C@]2(C)[C@@H]1CC[C@]2(O)C(=O)CO	-8.2%[21.4 µM]	.	-1.2%[21 µM]	.	-4.8%[12 µM]
2	Cc1cnc(C(=O)NCCc2ccc(S(=O)(=O)NC(=O)NC3CCCCC3)cc2)cn1	1.2%	2.1%	5.1%	2.1%	8.5%[60.1 µM]
3	O=C(O)c1ccccc1O	-3.3%&-5.3%&0.5%&-5.6%	5.7%	-6.4%&-2.3%&-1.2%	14.8%	-0.5%
4	CN(C)CCN(Cc1cccs1)c1ccccn1	-10.0%	2.0%	-7.0%	-5.6%[57.1 µM]	10.6%[60.1 µM]
5	O=c1[nH]cnc2ccccc12	3.3%&3.6%&-0.8%	10.5%	1.4%&-4.4%&-0.9%	6.5%	-8.1%[60.1 µM]
6	NC(N)=Nc1nc(CSCC/C(N)=N/S(N)(=O)=O)cs1	-4.1%	-7.3%	-0.4%	-23.3%	-9.6%[60.1 µM]
7	CC(C)[N+]1(C)C2CCC1CC(OC(=O)C(CO)c1ccccc1)C2 (stereo not given)	5.4%	.	22.6%&-0.2%	.	6.2%[19.4 µM]
8	C[C@]12C=CC(=O)C=C1CC[C@@H]1[C@@H]2[C@@H](O)C[C@@]2(C)[C@H]1CC[C@]2(O)C(=O)CO	-3.0%	0.2%	-1.8%&1.6%	43.2%	10.6%
9	C[C@]12C[C@H](O)[C@H]3[C@@H](CCC4=CC(=O)CC[C@@]43C)[C@@H]1CC[C@@H]2C(=O)CO	2.0%&0.2%	29.0%	6.3%&0.1%	19.8%	-10.6%[60.1 µM]
10	CC(C)[N+]1(C)[C@@H]2CC[C@H]1CC(OC(=O)C(CO)c1ccccc1)C2 (stereo not given in full)	1.4%	12.4%&-9.7%&-14.4%	-5.7%&-2.0%&15.2%&-3.9%	-23.3%	8.9%&0.0%&-2.1%

# Returning to the listing; the 2 compounds before the break are reprinted first.
# Order of results: BLM helicase inh | ERG Ets-DNA blk | APE1 inh | POLB inh | Pol kappa inh
9) C[C@]12C[C@H](O)[C@H]3[C@@H](CCC4=CC(=O)CC[C@@]43C)[C@@H]1CC[C@@H]2C(=O)CO
    2.0%&0.2% | 29.0% | 6.3%&0.1% | 19.8% | -10.6%[60.1 µM]
10) CC(C)[N+]1(C)[C@@H]2CC[C@H]1CC(OC(=O)C(CO)c1ccccc1)C2 (stereo not given in full)
    1.4% | 12.4%&-9.7%&-14.4% | -5.7%&-2.0%&15.2%&-3.9% | -23.3% | 8.9%&0.0%&-2.1%
11) NC(N)=Nc1nc(CSCC/C(N)=N\S(N)(=O)=O)cs1
    5.5% | . | 1.1% | . | -0.7%[60.1 µM]
12) CN1CCCN=C1/C=C/c1cccs1
    -1.3% | 3.4% | -3.5% | 17.0% | -0.5%
13) COCCCC/C(=N\OCCN)c1ccc(C(F)(F)F)cc1
    -8.0%&3.1%&-8.7%&-0.6% | ? | ? | -2.2% | 10.0%
14) CC1CC2C3CCC4=CC(=O)C=CC4(C)C3(F)C(O)CC2(C)C1(O)C(=O)CO (stereo not given)
    -3.2% | -4.4% | 1.0% | -14.7% | 0.1%
15) OC(CCN1CCCCC1)(c1ccccc1)C1CCCCC1 (stereo not given)
    2.1%&-2.8% | 5.8% | 19.9%&-1.7% | 21.5% | -10.0%[60.1 µM]
16) O=C(N[C@H](CO)[C@H](O)c1ccc([N+](=O)[O-])cc1)C(Cl)Cl
    3.8% | 5.4% | -7.7%&5.0%&-4.0% | . | -8.3%[19.4 µM]

# Assay outcomes deposited in PubChem by National Center for Advancing Translational Sciences (NCATS).
